HCMV NEC inh – inhibitors of HCMV UL50-UL53 nuclear egress complex interaction; inhibition, % (no concentration beside the values); HTRF UL50-UL53 interaction, normalized percent inhibition; actives 0.15% (n = 190,000); AID 1918969;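 active = both replicates at 50% or more, plus weaker picks with an unusually low signal ratio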;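 note: stock transfer was 100 nL into about 20 µL; 0% = negative control wells and 100% = wells with untagged competitor protein; inactives centre near -12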
GIV Gai3 FP – GIV-Galpha-i interaction inhibition | Galpha-i3/FITC-GIV peptide fluorescence polarization, 90 min; active compounds read low; scaled: aluminum fluoride 0%, vehicle 100% | percent of control (FP), % (no concentration beside the values) | actives 0.42% (n = 210,000) | AID 1224905;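 active = replicate mean at 85% of control or lower, very high polarization wells dropped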;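 note: wells of about 15 µL received 100 nL stock; the first replicate is given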
Target sequence (P08753 whole entry, looked up): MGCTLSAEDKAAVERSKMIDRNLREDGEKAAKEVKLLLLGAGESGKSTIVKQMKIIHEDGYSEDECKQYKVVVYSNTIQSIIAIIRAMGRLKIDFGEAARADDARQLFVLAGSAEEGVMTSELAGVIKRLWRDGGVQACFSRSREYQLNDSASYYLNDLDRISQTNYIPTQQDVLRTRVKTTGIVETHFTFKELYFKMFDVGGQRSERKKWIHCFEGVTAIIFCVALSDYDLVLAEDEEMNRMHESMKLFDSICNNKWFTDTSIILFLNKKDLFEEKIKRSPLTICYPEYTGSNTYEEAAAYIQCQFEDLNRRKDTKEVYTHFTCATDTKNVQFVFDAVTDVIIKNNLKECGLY
Sa growth 42C – S. aureus growth inhibition | relative growth, % (no concentration beside the values) | S. aureus RN4220 growth, OD600, 20 h, 42 °C; active compounds read low | actives 0.53% (n = 170,000);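 active = growth at 42 °C up to 50% and 20 or more points under that at 30 °C, or under 10% at both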;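 note: 300 nL library stock went into each well; scaled to the means of positive and negative controls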
Sa growth 42C second temp – second read-out of Sa growth 42C, no call of its own (marks repeat the call); relative growth, %; measured here: growth at 30 °C;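 optical density after 20 h as mean of two plates; 100% = untreated growth and lower means inhibition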
* = called active by the depositor; x = not tested or not shown; & = joins results of further samples. Random draw from the library, and some 0.82% of all compounds hit somewhere here.

SMILES | HCMV NEC inh | GIV Gai3 FP | Sa growth 42C | Sa growth 42C second temp
N#Cc1ccc(-c2cn3cccnc3n2)cc1 | -12.2 | 102.2 | 96.5 | 87.6
Cc1ccc(CNC(=O)c2ccccc2C(=O)O)cc1 | x | 99.9 | 116.7 | 84.8
CC(C)N(C(=O)C12CC3CC(CC(C3)C1)C2)c1ccccn1 | 10.2 | x | 81.6 | 95.8
Cc1ccc(-c2onc3ccc(C(=O)N4CCN(c5ccccn5)CC4)cc23)cc1 | -12.0 | 98.7 | x | x
CCc1nc2ccc(C(=O)NCCN3CCCCC3C)cc2nc1CC (stereo not drawn) | -43.7 | 105.1&104.2 | 105.1 | 83.0
COc1ccc(C2CC(c3ccccc3)=NN2C(=O)c2ccc(C)cc2)cc1 (stereo not drawn) | -19.4 | 104.8 | x | x
CCOc1ccccc1CNC(=O)CC(C)n1ccc(C)n1 (stereo not drawn) | x | 100.5 | 99.0 | 90.9
C=CCN1C(=O)C2(OCCCO2)c2ccccc21 | -6.6 | 99.4 | 73.5 | 89.5
Cn1c(CNc2cccc(C(F)(F)F)c2)n[nH]c1=S | -26.2 | 103.8 | 93.2 | 73.5
CCOc1ccc(CCNC(=O)c2nc3ccccc3nc2N2CCCC2)cc1OCC | -40.0 | 103.4 | x | x
COc1cc(-c2noc(-c3ccccc3)n2)ccc1OCC(=O)Nc1ccc(F)cc1 | -31.7 | 103.4 | x | x
C=CCOc1ccc(Cl)cc1C(=O)O | -22.2 | 101.2 | 106.2 | 80.2
CCOc1ccc2nc(SCC(=O)Nc3ccc(F)cc3)nc(-c3ccccc3)c2c1 | 16.4 | 100.4 | 98.1 | 101.2
C=CCn1c(SC(C)C(=O)N2CCCC2)nc2scc(C3CC3)c2c1=O (stereo not drawn) | -3.4 | x | 86.6 | 98.2
COc1ccccc1-n1c(/C=C2\C(=O)N(C)c3ccc(Br)cc32)nc2ccccc2c1=O | -18.8 | 99.6 | x | x
CC(=O)Nc1ccc(N/C=C2/CCCCC2=O)cc1 | -40.0 | 102.9 | 103.2 | 98.4
COc1ccc(NC(=S)NCC(c2ccco2)N(C)C)cc1 (stereo not drawn) | 6.5 | x | 103.0 | 99.7
COc1cccc(NC(=O)c2ccccc2N(C)C(=O)CCC(=O)Nc2cccnc2)c1 | 0.2 | x | 102.5 | 96.2
O=C(NCCN1CCOCC1)c1ccc(CS(=O)c2ccc(Br)cc2)o1 (stereo not drawn) | -6.3 | 107.9 | 98.7 | 96.8
CCOC(=O)c1cccc(NC(=O)CC2C(=O)N(c3ccc(F)cc3)C(=O)N2Cc2cccc(OC)c2)c1 (stereo not drawn) | x | 102.6 | 92.2 | 77.7
COCc1cc(C)nc2sc(-c3ccc([N+](=O)[O-])o3)c(NC(=O)c3ccccc3)c12 | -18.5 | 110.2 | x | x
O=C(NC1CC1)c1ccc2c(c1)N(Cc1ccccc1)CCS2 | x | 96.5 | 106.8 | 90.0
O=C(Nc1cc(C(F)(F)F)ccc1-n1cncn1)c1ccc(Cl)cc1 | 24.2 | x | 90.2 | 99.9
Cc1nc(N(C)C)cc(N2CCN(C(=O)Nc3ccc4c(c3)OCCO4)CC2)n1 | -35.5 | 101.9 | x | x
CSc1nnc2c(n1)OC(c1c(C)nn(-c3ccccc3)c1Cl)Nc1ccccc1-2 (stereo not drawn) | -59.1 | 107.1 | x | x
COc1ccc(OCC2c3cc(OC)c(OC)cc3CCN2C(=O)Nc2ccc(Cl)cc2)cc1 (stereo not drawn) | x | 103.8 | 126.4 | 96.2
Clc1ccc(-c2noc(-c3ccc(Nc4ccc5c(c4)OCCO5)nn3)n2)cc1 | -13.7 | 103.8 | x | x
C(=N\N1CCN(c2ccccn2)CC1)/c1ccccn1 | -33.4 | 102.4 | 115.7 | 104.7
Cc1cc(I)ccc1N | 0.1 | x | 102.4 | 98.3
CC1=Nc2cc(C(=O)NCCc3ccc(Cl)cc3)ccc2Sc2ccc(C)cc21 | -12.2 | 103.0 | 118.1 | 95.8
COC(=O)c1ccccc1NC(=S)Sc1ccc(Cl)cc1 | -11.6 | 102.4 | 114.7 | 33.8
N#C/C(=C/c1ccc(-c2cc(C(=O)O)ccc2Cl)o1)C(=O)NCCc1c[nH]c2ccccc12 | -91.3 | 114.0 | 9.7* | 1.4*
CCOC(=O)c1ccc(NC(=O)c2nn(-c3ccc(C)cc3)c(=O)cc2OC)cc1 | -10.6 | 104.0 | x | x
CC1CCN(C(=O)c2ccc3c(SCC(=O)O)c4c(nc3c2)CCCC4)CC1 | x | 98.9 | 100.7 | 85.9
CCOc1ccc2nc(C34CC5CC(CC(C5)C3)C4)ccc2c1 | x | 104.5 | 70.4 | 100.6
CCCOc1ccc(C(=O)Nc2nonc2C)cc1 | -11.1 | 102.1 | 85.1 | 78.0
CCOc1ccc(CCNC(=O)C2CCN(c3nnc(-n4cccc4)s3)CC2)cc1 | -4.6 | 103.6 | 98.1 | 87.2
COC(=O)C1=CN(C(C(=O)OC)c2ccccc2)C=C(C(=O)OC)C1c1ccc(F)cc1 (stereo not drawn) | x | 95.4 | 92.4 | 83.8
O=C(OCc1ccccc1)c1ccc2ccccc2n1 | -68.6 | x | 92.1 | 81.8
CC(=O)NC1(c2nnnn2CCOC(=O)Nc2ccc(Cl)cc2)CCCC1 | -13.4 | 104.6 | 89.5 | 75.0
CN(C)CCc1c[nH]c2ccc(C[C@H]3COC(=O)N3)cc12 | -23.7 | x | 85.8&100.0 | 83.8&96.7
NC(=O)C1CCCN1Cc1nc(N)nc(Nc2ccccc2)n1 (stereo not drawn) | -16.3 | x | 86.8 | 90.2
O=C(CCS(=O)(=O)Cc1ccccc1)N1CCc2ccccc21 | -13.4 | 100.3 | 106.9 | 94.3
CC(C)(C#N)C(C)(C)c1nn[nH]n1 | -3.2 | 103.3 | 105.3 | 104.0
COc1ccc(NC(=O)C(C)C2SC(=O)NC2=O)cc1 (stereo not drawn) | x | 104.6 | 101.1 | 79.5
COC(=O)C1C2C=CC3(CN(c4ccc(OC)cc4)C(=O)C13)O2 (stereo not drawn) | -32.9 | 99.6 | 86.1 | 89.8
NNC(=O)c1cccs1 | 1.7 | x | 81.4 | 100.0
Cc1cccc(C(=O)Nc2ccc3nc(N4CCCN(C)CC4)cc(C(=O)O)c3c2)c1 | -59.1 | 104.6 | x | x
CCc1cc(Sc2ccccc2NC(=O)C2CCCCC2)n2nc(C)nc2n1 | -32.6 | 104.1 | x | x
CCn1c2ccc(F)cc2c2nnc(SCCN3CCCCC3)nc21 | x | 99.8 | 88.4 | 88.5
CCCCC(=O)Nc1cc(C)c2c(=O)oc3ccccc3c2n1 | 3.3 | 115.4 | 106.7 | 94.5
COc1ccc2c(c1)C=C(C(=O)Nc1ccccc1)CO2 | -32.3 | 100.2 | x | x
COc1ccc(CN(Cc2ccc(C(=O)NO)cc2)S(=O)(=O)c2ccc3c(c2)OCCO3)cc1OC | -26.8 | 103.8 | 100.4 | 84.9
Cc1c(N=C2SCC(=O)N2/N=C\c2ccc(Br)cc2)c(=O)n(-c2ccccc2)n1C | x | 96.2 | 90.7 | 91.0
COc1ccc(NC(=O)CCc2nc3sc4c(c3c(=O)[nH]2)CCCC4)cc1OC | 9.1 | 100.8 | x | x
O=C(c1cc(C2CC2)on1)N1CCc2ccccc2C1 | -26.1 | 105.2&105.0 | 106.8 | 97.7
CSc1nnc2c(n1)OC(c1ccccc1)Nc1ccccc1-2 (stereo not drawn) | x | 105.6 | 92.4 | 81.2
O=C(CN1C(=O)CC(c2ccccc2)=Nc2ccccc21)Nc1ccc(Br)cc1 | -13.5 | 100.5&101.8 | 109.1 | 100.8
CCOC(=O)c1c(S(=O)(=O)N2CCCC(C(=O)N(C)Cc3ccccc3)C2)c(C)n(C)c1C (stereo not drawn) | x | 103.6 | 125.2 | 88.7
Cc1cccc(S(=O)(=O)c2cn(Cc3ccccc3)c3cc(N4CCCCC4C)c(F)cc3c2=O)c1 (stereo not drawn) | x | 105.8 | 123.1 | 99.5

Overlap with the part before: 6 entries, then new ones.
SMILES | HCMV NEC inh | GIV Gai3 FP | Sa growth 42C | Sa growth 42C second temp
COc1ccc(NC(=O)CCc2nc3sc4c(c3c(=O)[nH]2)CCCC4)cc1OC | 9.1 | 100.8 | x | x
O=C(c1cc(C2CC2)on1)N1CCc2ccccc2C1 | -26.1 | 105.2&105.0 | 106.8 | 97.7
CSc1nnc2c(n1)OC(c1ccccc1)Nc1ccccc1-2 (stereo not drawn) | x | 105.6 | 92.4 | 81.2
O=C(CN1C(=O)CC(c2ccccc2)=Nc2ccccc21)Nc1ccc(Br)cc1 | -13.5 | 100.5&101.8 | 109.1 | 100.8
CCOC(=O)c1c(S(=O)(=O)N2CCCC(C(=O)N(C)Cc3ccccc3)C2)c(C)n(C)c1C (stereo not drawn) | x | 103.6 | 125.2 | 88.7
Cc1cccc(S(=O)(=O)c2cn(Cc3ccccc3)c3cc(N4CCCCC4C)c(F)cc3c2=O)c1 (stereo not drawn) | x | 105.8 | 123.1 | 99.5
COc1ccc(OC)c(S(=O)(=O)Nc2ccc3[nH]c(=O)[nH]c3c2)c1 | 2.2 | 105.9 | 115.9 | 95.6
CC(=O)Nc1ccc(S(=O)(=O)NCc2cccn2Cc2cccc(F)c2)cc1 | -10.5 | 109.4 | x | x
COc1cc2[nH]c(=S)n(CCc3ccccc3)c(=O)c2cc1OC | x | 104.7 | 113.1 | 82.1
CC(Nc1ccc(N2CCOCC2)cc1)C(=O)Nc1ccc(F)cc1Cl (stereo not drawn) | -8.2 | x | 96.1 | 97.0
CC(C)CC(NC(=O)c1ccc(Cl)cc1Cl)C(=O)N1CCN(c2ncccn2)CC1 (stereo not drawn) | 0.8 | x | 98.8 | 96.4
COCCn1c(SCc2nc3ccccc3c(=O)[nH]2)nnc1-c1ccncc1 | -14.4 | x | 94.7 | 99.1
O=C(c1ccccc1Cl)n1nc(-c2cccnc2)nc1NCc1ccc(F)cc1 | -11.1 | 102.5 | 101.7 | 77.4
CCOCCCNC(=O)c1c(NC(=O)c2cc(=O)c3ccccc3o2)sc2c1CCC2 | -24.8 | 100.6 | 99.9 | 87.3
CCOC(=O)c1ccc(-c2cccc(C(F)(F)F)c2)o1 | -1.8 | 109.6 | 105.7 | 100.2
COc1ccc(CCNC(=O)CCn2c(=O)c3cccn3c3cccnc32)cc1OC | x | 102.9 | 87.8 | 69.7
O=c1c2oc3ccccc3c2n(Cc2ccccc2)c(=O)n1Cc1ccccc1 | x | 99.6 | 92.8 | 87.7
Cc1cc(N2CCCC2=O)c(NC(=O)C2CCCCC2)cc1NC(=O)C1CCCCC1 | -23.0 | 99.2 | 108.8 | 88.7
CN1OC(CO)CC1c1ccccc1 (stereo not drawn) | 1.8 | 98.7 | x | x
O=C(COc1ccc(Cl)cc1Cl)Nc1nc2ccccc2[nH]1 | -4.3 | x | 87.2 | 87.9
CCN(CC)c1ccc(CNc2ccc3c(c2)ncn3C(C)(C)C)cc1 | x | 113.2 | 76.3 | 49.8
CC(C(=O)Nc1ccc2c(c1)nc(CCc1ccccc1)n2C)N1C(=O)COc2ccccc21 (stereo not drawn) | -20.3 | 101.6 | x | x
COc1ccc(C(=O)Sc2ccc(C)cc2)cc1OC | -4.0 | 95.8 | 80.1 | 92.4
O=C(O)C1C2CCC(CC2)C1C(=O)NCc1ccccc1 (stereo not drawn) | 0.7 | 99.1 | 96.0 | 86.1
COc1ccc(NC(=O)CSc2nc3ccccc3n2CC(=O)N2CCCC(C)C2)cc1 (stereo not drawn) | x | 100.5 | 93.0 | 90.7
CCOc1ccc(N2C(=O)CC(Sc3nccc(C)n3)C2=O)cc1 (stereo not drawn) | 0.3 | 104.6 | 99.0 | 76.7
CCS(=O)(=O)NCCc1sc(C)nc1C | 1.6 | 109.8 | 103.9 | 99.7
COc1ccc(N2CCN(S(=O)(=O)c3c(C)nc4scc(C)n4c3=O)CC2)cc1 | -8.8 | 99.0 | 97.2 | 92.5
CCS(=O)(=O)N1Cc2ccccc2CC1C(=O)OCc1ccc(C#N)cc1 (stereo not drawn) | -27.8 | x | 97.6 | 94.2
CN(CC(=O)Nc1ccc(F)cc1)C(=O)CSc1nnc2n1CCCCC2 | -35.0 | x | 83.7 | 90.7
NC(=O)C1CCN(C(=O)CSc2ccccn2)CC1 | -7.1 | 103.8 | 99.1 | 94.4
c1ccc(OCc2nc3c4ccccc4ncn3n2)cc1 | -13.8 | 98.1 | x | x
Cc1ccccc1Cn1ccc(NC(=O)CCSc2nc(-c3ccco3)cc(C(F)(F)F)n2)n1 | -31.5 | 99.6 | 82.1 | 87.7
Cc1c(Cl)cccc1N1C(=O)c2cccnc2C1=O | -17.6 | 102.2 | 97.8 | 93.0
N#Cc1c(F)cccc1C(C#N)c1ccc(Cl)cc1Cl (stereo not drawn) | -20.7 | 99.6 | x | x
O=C(Nc1nc2ccccc2n1CCOc1ccccc1)c1cccc(F)c1 | -14.4 | 95.9 | x | x

Laid out differently: entries from further up
Order of values – HCMV NEC inh	GIV Gai3 FP	Sa growth 42C	Sa growth 42C second temp
c1ccc(OCc2nc3c4ccccc4ncn3n2)cc1
  -13.8	98.1	x	x
CCS(=O)(=O)NCCc1sc(C)nc1C
  1.6	109.8	103.9	99.7
